Screens as filed in PubChem.
D2 PAM: human D2 receptor positive allosteric modulation; P14416; DiscoveRx D2 beta-arrestin cells, luminescence, 90 min; 100% = 57 uM dopamine signal; potentiation, % (no concentration beside the values); 360,000 compounds, 0.23% hits; AID 624464; active = potentiation of 50% or more; inconclusive = 30% to 50%; inactive = 30% or less;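 further: compound concentration not given in the record; tested on top of an EC20 dose of dopamine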
Target sequence (P14416 whole entry, looked up): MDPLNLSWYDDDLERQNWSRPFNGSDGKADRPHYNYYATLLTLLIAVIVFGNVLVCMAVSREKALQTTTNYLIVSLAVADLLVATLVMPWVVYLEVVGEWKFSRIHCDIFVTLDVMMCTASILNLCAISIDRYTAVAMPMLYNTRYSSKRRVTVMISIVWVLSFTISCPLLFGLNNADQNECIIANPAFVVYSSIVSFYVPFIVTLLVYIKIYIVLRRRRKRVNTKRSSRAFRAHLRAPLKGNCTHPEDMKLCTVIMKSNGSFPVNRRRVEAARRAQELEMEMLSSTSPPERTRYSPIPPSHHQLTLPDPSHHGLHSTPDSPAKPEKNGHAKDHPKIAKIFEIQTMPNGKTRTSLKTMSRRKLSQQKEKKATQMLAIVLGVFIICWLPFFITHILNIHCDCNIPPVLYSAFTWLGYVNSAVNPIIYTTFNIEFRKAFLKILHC
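PathHunter D2 cells, attached overnight at 37 deg C, received compound in DMSO plus dopamine at EC20 (50 nM final) for 90 min at 37 deg C. Beta-arrestin recruitment was read as luminescence after 1 h with detection reagent at ambient temperature.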
CtBP-E1A inh: CtBP/E1A binding inhibition; AlphaScreen GST-E1A/His-CtBP binding, 1536-well; active compounds read low; control for the full effect not named in the record; activity change, % (test concentration not listed); 340,000 compounds, 0.49% hits; in the data active means activity change below about -65%; inconclusive means about -30% to -65%; inactive means above about -30%; further: on the % scale 0 is the no-effect control and ±100 the full control effect
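Protein mix (5X: 125 nM each GST-E1A, His-CtBP) was incubated with pinned compound 2 h at 37 deg C in dark, in 50 mM Tris pH 8.0 buffer with 300 mM NaCl. Glutathione donor and nickel acceptor beads followed; AlphaScreen signal read after 1 h.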
PINK1 expr mod: modulators of PINK1 expression; 410,000 compounds, 0.2% hits; Potency, µM (series often up to 76.6 µM), inactives show at the top dose activation (PINK1 increase), most hits filed as activators; PINK1 immunofluorescence, high-content cytometry, 24 h; active = well fitted activation curve with a large enough effect; inconclusive = small, poorly fitted or top-dose-only effect; inactive = flat fitted curve, though single readings scatter; cell line not stated here;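 further: potency means the concentration at half of the fitted maximal effect; % of control where 0% means no effect; nearly all actives have a fitted effect of over 65% in size; a mitochondrial uncoupler was the plate control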
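Fluorescence from anti-PINK1 antibody, together with nuclear and cell stains, was scanned on a laser-scanning cytometer. Before staining, stable-line cells were incubated 24 hours with compounds at 5 concentrations; primary antibody 12 h at 10 degrees C.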
D2 agonist: activates the human D2 dopamine receptor; P14416; DiscoveRx PathHunter D2 beta-arrestin, luminescence, 90 min; 100% = 57 uM dopamine signal; activation, % (no concentration beside the values); 360,000 compounds, 0.084% hits; AID 624465; in the data active = activation above about 40%; inconclusive = about 15% to 40%; inactive = below about 15%; further: compound concentration not given in the record; the text of the record calls up to 30% inactive
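DiscoveRx PathHunter D2 beta-arrestin cells (2,100/well) attached overnight, then compound-stimulated 90 min at 37 C in HBSS/10 mM HEPES/0.1% Tween-20 buffer; beta-galactosidase complementation read by luminescence after 1 h at ambient temperature. Dopamine 57 uM final (EC100) as control.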
TRPV1 PAM: human TRPV1 potentiation | Q8NER1 | 320,000 compounds, 0.02% hits | potentiation, % at 8.33 µM | AID 540277 | TRPV1-expressing cells, Fluo-8 calcium influx, capsaicin EC20 potentiation; host cell line not named in the record; control for the full effect not named in the record; active means potentiation above 80%; inconclusive means 30% to 80%; inactive means below 30%; further: 0% is about no effect
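Fluo-8 calcium influx in TRPV1-expressing cells, kinetic read (ex 480/em 520 nm). Compound added and read 3 min for agonist activity, followed by capsaicin at EC20 final and 2 min further read for enhancement.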
Sfp inh: Sfp phosphopantetheinyl transferase inhibition | Q9F4F7 | Biochemical Sfp PPTase activity, qHTS | Potency, µM, without a hit: max response, negative = inhibition, hits mostly inhibitors | 310,000 compounds, 3.5% hits; active means well fitted inhibition curve with a large enough effect; inconclusive means small, poorly fitted or top-dose-only effect, or another doubt; inactive means no such curve, though single readings can be large or run the other way;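 further: the enzyme is Sfp with the accession as filed and its product quenches rhodamine fluorescence; potency means the concentration at half of the fitted maximal effect; 0% = enzyme reaction without inhibitor and -100% = no enzyme wells; top concentration of the series not given in the record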
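Step 1, compound plus 15 nM Sfp-PPTase, 15 min, room temperature. Step 2, add rhodamine-CoA (5 uM) and BHQ-2-YbbR (12.5 uM). Step 3, read 525/598 nm fluorescence at 0 and 30 min.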
Six1-Eya2 inh: blocks human Six1 binding to Eya2 | AID 651725 | 360,000 compounds, 0.56% hits | Q15475+O00167 | activity change, % (no concentration beside the values) | AlphaScreen GST-Six1/His-Eya2 binding, biochemical; active compounds read low; control for the full effect not named in the record; in the data active = activity change below about -65%; inconclusive = about -30% to -65%; inactive = above about -30%; further: on the % scale 0 is the no-effect control and ±100 the full control effect
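GST-Six1 + His-Eya2 (5X stock: 250/500 nM); Tris pH 8.0, 300 mM NaCl, 0.05% BSA, 0.02% Tween 20; GSH donor/Ni acceptor beads; 1 h 37 °C dark; AlphaScreen readout.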
* marks the source's active call; other numbers are inactive results; ? = inconclusive; / = no result given; [ ] = another dose, or the depositor's remark. An unsorted share of the library (roughly 3.7% active in at least one column).

canonical_smiles | D2 PAM | PINK1 expr mod | D2 agonist | CtBP-E1A inh | Sfp inh | Six1-Eya2 inh | TRPV1 PAM
COc1ccc(OC)c(CCNC(=O)CCc2nnc3ccc(N4CCCC4)nn23)c1 | -2 | 1.6% | 2.6 | -1 | 9% | -4 | -1
CC1(C)OC(=O)C2=C(CC(CCc3ccccc3)OC2c2ccccc2)O1 (stereo not given) | 2 | 5.3% | -7.1 | 15 | / | 9 | /
O=C(Nc1nc(-c2ccco2)c(-c2ccco2)s1)c1ccco1 | 8 | 16% | -0.3 | -2 | / | -10 | 1
CC(C)(C)CN1CCNC(=O)C1CC(=O)NCc1cccc(-n2cccn2)c1 (stereo not given) | -5 | -1.1% | 2.2 | 5 | -9% | -12 | 7
Cc1cccc(N2C(=O)SC(SC(=Nc3ccccc3)Nc3ccccc3)C2=O)c1 (stereo not given) | -8 | 0.4% | -2.5 | 2 | 10µM* | -3 | -16
O=C(Nn1c(C2CC2)nc2ccccc2c1=O)c1ccco1 | 0 | 0.7%[38.3 µM] | -3.2 | 6 | 13% | 5 | 6
Nc1cc(=O)[nH]c(SCC(=O)Nc2ccc(S(=O)(=O)N3CCCCC3)cc2)n1 | -5 | -1.6% | -1.8 | -6 | 8% | 7 | -4
Cc1ccc(C(=O)Nc2ccc3cn[nH]c3c2)cc1S(=O)(=O)N1CCOCC1 | 3 | -0.1% | 5.0 | / | -9% | -12 | 11
CC(C)C(NC(=O)c1ccco1)C(=O)NCc1ccc(C(=O)O)cc1 (stereo not given) | -11 | 1.0% | -4.4 | 2 | 8% | 5 | 2
COc1cccc(CC2(CO)CCN(Cc3cnc(-c4cccc(C)c4)nc3)CC2)c1 | -14 | 6.7% | 3.3 | -7 | 13% | -14 | 27
CN(C)/C=C/C(=O)c1cnc(-c2ccccn2)s1 | -8 | 1.4% | -5.5 | 1 | 8% | 6 | 11
Cn1cccc1C(=O)C(=O)Nc1ccc(F)c(F)c1 | 0 | -0.3% | 0.1 | 7 | 3% | 1 | -8
COc1ccc(NS(=O)(=O)c2ccc(C)c(C(=O)NCC(c3ccco3)N3CCCCC3)c2)cc1 (stereo not given) | -3 | -2.7% | 0.3 | -2 | / | -1 | 0
CCn1c(O)c(/C=C2\C=Nc3ccccc32)sc1=Nc1ccccc1 | -2 | 11%[38.3 µM] | -1.7 | -10 | 27% | -6 | ?
COc1ccc(CCNC(=O)CN(c2ccccc2)S(C)(=O)=O)cc1 | -4 | 0.1% | -13 | 3 | -2% | 1 | -6
Cc1ccc(O)c(C2=Nc3ccccc3N=C(c3cccc([N+](=O)[O-])c3)C2)c1 | -1 | -1.9% | -3.9 | -1 | 3% | -15 | -32
Cc1cc2nc(-c3cc(N4CCOCC4)ccc3[N+](=O)[O-])ccn2n1 | 0 | 0.0% | -2.1 | -10 | 9% | 2 | 15
CCCc1nc2ccc(C)cn2c1Cc1ccccc1C(F)(F)F | -17 | 2.4% | -7.1 | -14 | / | -6 | /
O=C(COC(=O)c1ccc(CO)cc1)c1ccc(S(=O)(=O)N2CCCCC2)cc1 | -21 | -1.1% | -6.5 | / | / | -3 | -13
CC1c2ccccc2N(S(=O)(=O)c2ccccc2)C1C (stereo not given) | -1 | 15% | 6.7 | 21 | / | 11 | /
CCN(CC)c1ccc(NC(=S)NC(=O)c2cccs2)cc1 | 2 | 0.6% | -2.6 | / | ? | ? | -7
O=C(c1ccc(F)cc1)N1CCC(O)(c2cccnc2)CC1 | -12 | -0.3% | -0.5 | 5 | 11% | 4 | -1
CCCC(NC(=O)CCl)c1ccccc1 (stereo not given) | -14 | -0.7% | -1.4 | 11 | 4% | 11 | -25
O=C(CCN1C(=O)C2C3C=CC(C3)C2C1=O)Nc1ccccn1 (stereo not given) | -5 | -4.3% | 7.2 | 5 | 9% | 7 | 14
CCC(CC)C(=O)NCCCCc1ccccc1 | -6 | 0.0% | -3.2 | 2 | -6% | 8 | -15
CC(C)[C@H]1COC(NC2=N[C@@H](C(C)C)CO2)=N1 | -7 | -0.8% | -1.5 | 1 | 15% | -2 | 12
CN(c1ccc(F)cc1)S(=O)(=O)c1ccc(Cl)c(C(=O)NCC2(N3CCOCC3)CCCCC2)c1 | -7 | 0.5% | 2.9 | -2 | / | -4 | /
CCOC(=O)c1nnn(-c2nonc2N)c1C | -3 | -1.5%[38.3 µM] | -0.9 | -11 | -19% | 5 | 0
CC(C)C(=O)Nc1c2c(nn1-c1ccc(F)cc1)CS(=O)(=O)C2 | -6 | 0.0% | 1.8 | -16 | 11% | 2 | -12
CNC(=O)NC(=O)Cn1cnc2sc(-c3ccccc3)cc2c1=O | -4 | 5.7% | -3.2 | -1 | 6% | 9 | 3
O=C(CCCCCNC(=S)Nc1ccccc1)C[N+](=O)[O-] | -9 | -0.4% | -2.6 | / | -28% | 7 | 8
COCC(=O)Nc1cc(C(=O)NCCc2ccccc2)ccc1Cl | 4 | -1.0% | -3.4 | 6 | 10% | 4 | 13
O=C(CCSc1nnc(-c2ccco2)o1)N1CCOCC1 | -21 | -0.1% | 0.3 | -11 | 23% | 2 | 8
CCOc1ccc2nc(N(CCN(CC)CC)C(=O)/C=C/c3cccs3)sc2c1 | -38 | 13% | -2.0 | 0 | 12% | -1 | -26
CC(=O)c1c(N2CCOCC2)[nH]c(-c2ccccc2)nc1=S | -22 | 2.2% | -6.4 | 9 | 6% | 1 | -6
COc1ccccc1-c1nnc(C2CCN(S(=O)(=O)c3ccccc3[N+](=O)[O-])CC2)o1 | 3 | 0.2% | -0.4 | -1 | -13% | -7 | -5
CC(C)CCNC(=O)C(c1ccncc1)N(CC1CCCO1)C(=O)Cn1nnc(-c2ccc(F)cc2)n1 (stereo not given) | -4 | 1.7% | 0.7 | 0 | -5% | 1 | 6
COc1ccc(OC)c(CN2CCC(C(=O)N3CCN(c4ccccc4F)CC3)CC2)c1 | -15 | -0.6% | -2.5 | -6 | 0% | 2 | 9
COC(=O)c1ccccc1NC(=S)NC(=O)c1ccc(C)cc1 | -6 | 3.3% | -2.9 | 1 | -26% | ? | -7
CCOC(=O)Cn1c(S(=O)(=O)Cc2ccc(Cl)cc2)nc(-c2ccccc2)c1-c1ccccc1 | -10 | 4.8%[38.3 µM] | -3.0 | -5 | 7% | -3 | -5
O=C1S/C(=C/c2ccccc2)C(=O)N1CC(O)Cn1c2ccccc2c2ccccc21 (stereo not given) | -6 | 16% | -3.3 | -18 | 8% | -11 | 2
Cc1cc(N2CCCCC2)n2ncc(-c3ccccc3)c2n1 | -13 | 6.6% | -0.8 | 92 | ? | 74 | -7
O=C(CSc1ccccn1)Nc1ccc(Cl)c([N+](=O)[O-])c1 | -10 | -0.2% | 0.6 | 7 | 3% | -10 | ?
CCOc1ccc(NC(=O)NNC(=O)C2CCC(C(C)(C)C)CC2)cc1 (stereo not given) | 1 | 3.5% | 0.8 | -3 | 6% | 0 | 14
Cc1ccc(-c2nnn(CC(=O)N(CCCO)C(C(=O)NC3CCCC3)c3ccc(Cl)cc3)n2)o1 (stereo not given) | -8 | 15% | -2.9 | 4 | 15% | 7 | -1

Some values from the results shown:
In D2 PAM, Cc1cc(N2CCCCC2)n2ncc(-c3ccccc3)c2n1 is entered as -13
In D2 PAM, Cc1ccc(-c2nnn(CC(=O)N(CCCO)C(C(=O)NC3CCCC3)c3ccc(Cl)cc3)n2)o1 (stereo not given) is entered as -8
In D2 agonist, CC(=O)c1c(N2CCOCC2)[nH]c(-c2ccccc2)nc1=S is entered as -6.4
In D2 PAM, COC(=O)c1ccccc1NC(=S)NC(=O)c1ccc(C)cc1 is entered as -6
In Sfp inh, CCOc1ccc2nc(N(CCN(CC)CC)C(=O)/C=C/c3cccs3)sc2c1 is entered as 12%

One compound at a time (already shown).
`CC1(C)OC(=O)C2=C(CC(CCc3ccccc3)OC2c2ccccc2)O1` (stereo not given) across the screens: D2 PAM = 2; PINK1 expr mod = 5.3%; D2 agonist = -7.1; CtBP-E1A inh = 15; Sfp inh = /; Six1-Eya2 inh = 9; TRPV1 PAM = /
`COc1cccc(CC2(CO)CCN(Cc3cnc(-c4cccc(C)c4)nc3)CC2)c1` across the screens: D2 PAM = -14; PINK1 expr mod = 6.7%; D2 agonist = 3.3; CtBP-E1A inh = -7; Sfp inh = 13%; Six1-Eya2 inh = -14; TRPV1 PAM = 27

Further records:
canonical_smiles | D2 PAM | PINK1 expr mod | D2 agonist | CtBP-E1A inh | Sfp inh | Six1-Eya2 inh | TRPV1 PAM
CN(C)NC(=S)Nc1cccc(C(F)(F)F)c1 | -4 | -0.4% | -2.9 | 1 | 3% | 7 | /
COc1ccc(S(=O)(=O)Nc2c(C)nn(C)c2C)cc1Br | -2 | 2.2% | 6.9 | 5 | / | 2 | /
COc1ccc2sc(C)[n+](C)c2c1 | -2 | 3.4% | 0.3 | 5 | 45µM* | 8 | -1
CSCC[C@@H](C(=O)O)N1Cc2ccccc2C1=O | -6 | 0.9% | -3.5 | 1 | -2% | 2 | 9
CC(C)CC(NC(=O)CC12CC3CC(CC(C3)C1)C2)C(=O)NC1=NCCS1 (stereo not given) | -13 | 1.6% | -0.4 | -7 | 17% | 10 | -7
CC(C)OC(=O)n1c(=S)oc2ccccc21 | -14 | -0.4%[38.3 µM] | -0.1 | -19 | ? | -15 | 18
Cn1ncc(Cl)c1C(=O)N1CCOCC1 | 0 | -2.0% | -3.0 | 4 | 18% | 6 | 21
COCCOc1cc(NC(=O)c2cccc(OC)c2)c(Cl)cc1Cl | -10 | 0.4% | -1.6 | -14 | -9% | 17 | 21
COc1cc2c(cc1OC)C(=O)CCC2 | -16 | -1.1% | -1.3 | 3 | / | -1 | /
CC(=O)N1C(=O)/C(=C2\SC(=S)N(NS(=O)(=O)c3ccc(C)cc3)C2=O)c2ccccc21 | -1 | -1.9% | 1.4 | 2 | 45µM* | -3 | 9
COc1ccc(Cl)cc1NC(=O)CNC(c1ccccc1)c1ccccc1 | -5 | 7.0% | -2.2 | 5 | 0% | 6 | -11
